# Ab BasE inh: BasE siderophore biosynthesis inhibition. AID 485350. purified BasE, fluorescence polarization binding displacement. actives 0.1% (n = 84,000). inhibition, % (concentration not given with the values);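 active means both replicates above 25% with normal brightness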;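 further: 0% = negative plate control signal and 100% = positive plate control signal; stock transfer was 100 nL into about 30 µL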
# LANA-nucl inh: inhibitors of KSHV LANA binding to nucleosomes. z-score (concentration not given with the values). actives 0.3% (n = 51,000). FITC-LANA1-23 / chicken nucleosome fluorescence polarization; hits give low values;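 active means both repeat wells score below -2 in polarization z-score versus plate sample wells, excluding overly bright wells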;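 further: 100 nL library stock added to about 30 µL; numbers are from one replicate; some results filed as inactive read as strong as hits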
#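 Material: Purified chicken nucleosomes with FITC-labelled LANA N-terminal peptide (1-23) | Reagent: 50 nM FITC-LANA1-23 probe | Medium: TEN-BT buffer, pH 7.5 | Times: 10–45 min incubation at room temperature | Detection: Fluorescence polarization | Replication: Duplicates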
# Numbers without * were called inactive; . = no result given; & = joins results of further samples.
CN1CCCN=C1COC(=O)C(O)(c1ccccc1)C1CCCCC1 (stereo unspecified)
  Ab BasE inh = -4.2; LANA-nucl inh = 0.63&-0.62
Cc1cn(C2CC(O)C(CO)O2)c(=O)[nH]c1=O (stereo unspecified)
  Ab BasE inh = -1.1; LANA-nucl inh = 1.9
CC(=O)O[C@]1(C(C)=O)CC[C@H]2[C@@H]3C=C(Cl)C4=CC(=O)C5CC5[C@]4(C)[C@H]3CC[C@@]21C (stereo partly specified)
  Ab BasE inh = -2.2; LANA-nucl inh = -0.085
N#Cc1ccc(C(c2ccc(C#N)cc2)n2cncn2)cc1
  Ab BasE inh = -0.9; LANA-nucl inh = -0.32&0.28&-0.21
CC1Cc2ccccc2N1NC(=O)c1ccc(Cl)c(S(N)(=O)=O)c1 (stereo unspecified)
  Ab BasE inh = 0.2; LANA-nucl inh = 0.19&0.17&0.39
CCC(NC(C)C)C(O)c1ccc(O)c2[nH]c(=O)ccc12 (stereo unspecified)
  Ab BasE inh = .; LANA-nucl inh = 0.11
COc1cc2ncnc(Nc3cccc(Cl)c3)c2cc1OC
  Ab BasE inh = -4.8; LANA-nucl inh = 0.34
CCCc1nc(C(C)(C)O)c(C(=O)O)n1Cc1ccc(-c2ccccc2-c2nn[nH]n2)cc1
  Ab BasE inh = .; LANA-nucl inh = -0.045
Cc1cc(N2CCN(C)CC2)nc2ccc(NC(=S)NCc3ccco3)cc12
  Ab BasE inh = 1.4; LANA-nucl inh = 0.2
CCN(CC)CCOC(=O)c1ccc(N)cc1
  Ab BasE inh = -1.3&-0.2; LANA-nucl inh = 0.37&-0.53&-0.25
CC1(C)O[C@@H]2CC3C4C[C@H](F)C5=CC(=O)C=C[C@]5(C)[C@@]4(F)[C@@H](O)C[C@]3(C)[C@]2(C(=O)CO)O1 (stereo partly specified)
  Ab BasE inh = .; LANA-nucl inh = -0.14
COc1ccc(C2CNC(=O)C2)cc1OC1CCCC1 (stereo unspecified)
  Ab BasE inh = 2.5&1.4; LANA-nucl inh = -0.24&-0.84&-0.058&-0.74
CCCCNc1ccc(C(=O)OCCN(C)C)cc1
  Ab BasE inh = 2.0&3.0; LANA-nucl inh = 0.11&-0.32&-0.56
O=C(O)CCC(=O)c1ccc(-c2ccccc2)cc1
  Ab BasE inh = -1.6&-0.4; LANA-nucl inh = 0.094&0.28&0.65&0.37
CC[C@H](NC(C)C)[C@H](O)c1ccc(O)c2[nH]c(=O)ccc12
  Ab BasE inh = .; LANA-nucl inh = -0.036
C/C=C/C(=O)N(CC)c1ccccc1C
  Ab BasE inh = -0.9&-0.7; LANA-nucl inh = 1.6&0.21&0.3&0.68&-1.7
CCOC(=O)[C@H](CCc1ccccc1)N[C@@H](C)C(=O)N1Cc2ccccc2C[C@H]1C(=O)O
  Ab BasE inh = 1.6; LANA-nucl inh = 0.34&-0.17&0.11
NC(N)=O
  Ab BasE inh = -0.3; LANA-nucl inh = -0.09&-0.91
CCn1cc(C(=O)O)c(=O)c2cnc(N3CCNCC3)nc21
  Ab BasE inh = 1.1&1.5; LANA-nucl inh = -0.63&0.28
NC1CCN(c2nc3c(cc2F)c(=O)c(C(=O)O)cn3-c2ccc(F)cc2F)C1 (stereo unspecified)
  Ab BasE inh = .; LANA-nucl inh = -0.18&-0.13
O=C(O)c1cccnc1Nc1cccc(C(F)(F)F)c1
  Ab BasE inh = -0.4&0.1&2.6; LANA-nucl inh = 0.51&-0.5&-0.47&0.31
CC(=O)CCCCn1c(=O)c2c(ncn2C)n(C)c1=O
  Ab BasE inh = -1.6&0.3; LANA-nucl inh = -0.39&-0.061&0.04&-0.29&-0.69
CC12CC3CC(C)(C1)CC(N)(C3)C2
  Ab BasE inh = 0.2&-0.5; LANA-nucl inh = -0.51&-0.41&0.92
CCCCCCCCCCCCCCC[C@H](O)[C@@H](N)CO
  Ab BasE inh = -4.9; LANA-nucl inh = 1.1
CCc1ccc(CCOc2ccc(CC3SC(=O)NC3=O)cc2)nc1 (stereo unspecified)
  Ab BasE inh = -0.2; LANA-nucl inh = -0.6&-0.23&-0.044&0.53

# Exported with two lines to a compound: part of the list above
# Results follow in this order: Ab BasE inh	LANA-nucl inh
COc1cc2ncnc(Nc3cccc(Cl)c3)c2cc1OC
→ -4.8	0.34
CCOC(=O)[C@H](CCc1ccccc1)N[C@@H](C)C(=O)N1Cc2ccccc2C[C@H]1C(=O)O
→ 1.6	0.34&-0.17&0.11

# (list continues)
O=c1oc2c(O)c(O)cc3c(=O)oc4c(O)c(O)cc1c4c23
  Ab BasE inh = 3.1; LANA-nucl inh = -0.85
Cc1ccc(N(CC2=NCCN2)c2cccc(O)c2)cc1
  Ab BasE inh = 1.0&-1.0&1.8; LANA-nucl inh = -0.19&0.33&0.098&0.75&-0.35
O=C(O)c1ccc2ccccc2c1O
  Ab BasE inh = 5.7; LANA-nucl inh = .
CNCCCN1c2ccccc2CCc2ccccc21
  Ab BasE inh = -2.4&-0.6; LANA-nucl inh = -0.24&0.55&-0.79
C[N+]1(C)CCC(=C(c2ccccc2)c2ccccc2)CC1
  Ab BasE inh = -0.4; LANA-nucl inh = -0.66
C1COC(NC(C2CC2)C2CC2)=N1
  Ab BasE inh = 0.1; LANA-nucl inh = 0.32&-0.04
Oc1ccc(C2CNCCc3c2cc(O)c(O)c3Cl)cc1 (stereo unspecified)
  Ab BasE inh = .; LANA-nucl inh = -0.037&-0.031
O=C1OC(Nc2ccc(S(=O)(=O)Nc3ccccn3)cc2)c2ccccc21 (stereo unspecified)
  Ab BasE inh = 0.3; LANA-nucl inh = .
COc1ccc(-c2cc(=S)ss2)cc1
  Ab BasE inh = .; LANA-nucl inh = -0.22
CC12CCC(=O)C=C1CCC1C2CCC2(C)C1CCC2(O)C(=O)CO (stereo unspecified)
  Ab BasE inh = .; LANA-nucl inh = -0.23
CCCCNc1ccc(C(=O)OCCOCCOCCOCCOCCOCCOCCOCCOCCOC)cc1
  Ab BasE inh = -0.2; LANA-nucl inh = -0.041
CC(=O)Nc1ccc(CC(=O)O)cc1
  Ab BasE inh = .; LANA-nucl inh = -0.036
CCOC(N)=O
  Ab BasE inh = -3.2; LANA-nucl inh = 0.034&0.91
CN(C)CCCC1(c2ccc(F)cc2)OCc2cc(C#N)ccc21 (stereo unspecified)
  Ab BasE inh = .; LANA-nucl inh = 0.97&0.22&1

# Shown with values under each structure: part of the list above
# Values run as follows: Ab BasE inh | LANA-nucl inh
Cc1cc(N2CCN(C)CC2)nc2ccc(NC(=S)NCc3ccco3)cc12
  1.4 | 0.2
CCN(CC)CCOC(=O)c1ccc(N)cc1
  -1.3&-0.2 | 0.37&-0.53&-0.25
CC1(C)O[C@@H]2CC3C4C[C@H](F)C5=CC(=O)C=C[C@]5(C)[C@@]4(F)[C@@H](O)C[C@]3(C)[C@]2(C(=O)CO)O1 (stereo partly specified)
  . | -0.14
COc1ccc(C2CNC(=O)C2)cc1OC1CCCC1 (stereo unspecified)
  2.5&1.4 | -0.24&-0.84&-0.058&-0.74
CCCCNc1ccc(C(=O)OCCN(C)C)cc1
  2.0&3.0 | 0.11&-0.32&-0.56
O=C(O)CCC(=O)c1ccc(-c2ccccc2)cc1
  -1.6&-0.4 | 0.094&0.28&0.65&0.37

# High-throughput results from PubChem BioAssay.

# These rows are one share of the data; the hit share may differ from the screen's.
